# Vif TR-FRET – HIV-1 Vif–A3G interaction blockers – biochemical, TR-FRET, GST-Vif 1-94, biotin-A3G peptide, dose response retest, primary screen (AID 1117319); TR-FRET GST-Vif / biotin-A3G peptide binding; higher % means a stronger effect; test concentration not given here; strong numbers were not always called active; inhibition, %; hits with a dose series show IC50 in µM; 260,000 tested, 0.57% active;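 active = above the screen mean plus three standard deviations and confirmed in dose response; inconclusive = results disagree or hit not tested in dose response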;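 also: Vif residues 1-94 fused to GST binding biotinylated APOBEC3G peptide 110-148; 0% = full assay without inhibitor and 100% = GST in place of GST-Vif; retest series ran down from 100 µM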
# LANA-H2B inh – blocks KSHV LANA binding to histone H2A/H2B; Q9QR71; cell-free LANA-H2A/H2B peptide, fluorescence polarization; inhibition, % (no concentration beside the values); 320,000 tested, 0.6% active; AID 2629; in the data active = inhibition mostly above about 10%, no sharp cut-off; inactive = mostly below about 6.7%;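 also: stock transfer was 7.5 nL into about 10 µL; 0% = median of vehicle wells and 100% = median of positive control wells; one replicate is shown; the record names a cut of 25% in any replicate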
# UCH37 DUB inh – human UCH37 deubiquitinating enzyme inhibition; Q9Y5K5; purified proteasome/UCH37, Ub-AMC cleavage fluorescence; inhibition, % (test concentration not listed); 330,000 tested, 0.33% active;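 active = mean of two replicates above 20%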;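 also: 0% = compound-free wells with enzyme and 100% = wells lacking proteasome; stock transfer was 100 nL into about 20 µL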
# Target sequence (Q9Y5K5 whole entry, looked up): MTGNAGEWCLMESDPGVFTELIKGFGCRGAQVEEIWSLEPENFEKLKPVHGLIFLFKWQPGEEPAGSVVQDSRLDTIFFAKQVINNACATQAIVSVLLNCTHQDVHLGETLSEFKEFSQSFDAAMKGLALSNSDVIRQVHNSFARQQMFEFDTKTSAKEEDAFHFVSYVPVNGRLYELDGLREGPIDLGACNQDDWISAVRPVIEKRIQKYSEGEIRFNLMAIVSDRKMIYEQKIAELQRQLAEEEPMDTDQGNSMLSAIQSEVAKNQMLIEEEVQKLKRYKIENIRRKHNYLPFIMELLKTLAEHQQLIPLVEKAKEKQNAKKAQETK
#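 Schedule: 30 min plus 25 min, room temperature / Material: human UCH37 within purified proteasomes / Technique: AMC fluorescence intensity at 355/460 nm / Buffer or medium: pH 7.4 Tris-HCl (50 mM) with ovalbumin, ATP-MgCl2, DTT / Controls: wells without proteasome as full block, compound-free enzyme plus substrate as uninhibited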
# HNF4A DNA FP – change in binding of human HNF4 alpha to DNA; P41235; HNF4a-FITC DNA binding, fluorescence polarization, 1 h; activity change, % at 10 µM; 360,000 tested, 0.3% active; AID 1224865; in the data active = activity change above about 30%, passing the limit was not always enough;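 also: controls were the assay level and a saturating level of protein; the project sought stronger binding though the title names inhibitors; some compounds called inactive have numbers as strong as hits; positive values seem to mean higher polarization but the record does not say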
# Target sequence (P41235 whole entry, looked up): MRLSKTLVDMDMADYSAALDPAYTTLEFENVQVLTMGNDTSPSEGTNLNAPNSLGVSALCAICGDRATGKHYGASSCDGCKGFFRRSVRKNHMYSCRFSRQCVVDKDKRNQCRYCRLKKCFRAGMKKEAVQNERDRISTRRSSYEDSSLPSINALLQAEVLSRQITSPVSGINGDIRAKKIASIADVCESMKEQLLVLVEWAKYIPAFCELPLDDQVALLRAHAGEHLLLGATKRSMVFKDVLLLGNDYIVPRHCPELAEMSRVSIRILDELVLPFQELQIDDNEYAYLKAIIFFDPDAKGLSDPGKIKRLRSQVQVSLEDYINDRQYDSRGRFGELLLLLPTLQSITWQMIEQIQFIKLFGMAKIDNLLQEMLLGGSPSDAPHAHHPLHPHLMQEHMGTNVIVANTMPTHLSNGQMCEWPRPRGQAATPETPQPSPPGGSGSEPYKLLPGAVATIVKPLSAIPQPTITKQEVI
# B2AR ag – activates human beta-2 adrenergic receptor causing internalization; P07550; Am2.2-beta2AR cells, FAP receptor internalization, flow cytometry; reference of the scale not given here; response, % (concentration not given with the values); 340,000 tested, 0.43% active;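 active = response above a set limit, near 3 SD of response in nonfluorescent compounds, cut at about 42% in these data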;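 also: stock transfer was 100 nL into about 11 µL; a reference agonist was the positive control; negative values mostly stem from fluorescent compounds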
# A1 inh – inhibitors of the anti-apoptotic protein A1, read as caspase activation; 330,000 tested, 0.066% active; MEF A1-2A-BIM cells, Caspase-Glo 3/7 luminescence, 3 h; percent of clofoctol response, vehicle zero; caspase activation, % (test concentration not listed);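 active = over half of replicate activation scores above 10%, or exactly half above 10 with the replicate mean above 10; inconclusive = replicate mean below 10 yet half the replicates above 10; inactive = over half of replicates below 10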;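 also: wells of about 30 µL received 50 nL stock; many hits fall short of the cut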
# E coli growth – blocks Escherichia coli growth | OD600, 23 h; active compounds read low | OD600 absorbance (concentration not given with the values) | 330,000 tested, 0.21% active | AID 1053175;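 active = OD600 absorbance below the run mean of sample wells minus 3.6 SD, in any replicate, cut at about 0.56 in these data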;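 also: stock transfer was 300 nL into about 60 µL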
# Active calls of the source: *; ? = inconclusive; / = no result given. Hits appear at their usual frequency. Share with any hit: about 2.1%.
SMILES,Vif TR-FRET,LANA-H2B inh,UCH37 DUB inh,HNF4A DNA FP,B2AR ag,A1 inh,E coli growth
CCOc1ccccc1NC(=O)c1cccnc1,0%,6.0,0.7,-3.1,3,0.4,0.7
O=C(c1ccco1)N1CCN(C(c2ccccn2)c2nnnn2C2CCCC2)CC1 (stereo unspecified),64%,0.0,1.4,-9.3,-4,-0.2,0.68
Cc1ccc(NC(=O)COC(=O)Cc2csc(-c3cccc(F)c3)n2)cc1C,-73%,0.7,1.4,3.7,1,0.7,0.7
Cc1cc(NS(=O)(=O)c2ccc(NC(=O)CCCOc3ccc(Cl)cc3)cc2)no1,0%,-1.6,1.4,1.6,3,0.6,0.68
CC1CCN(CC(=O)c2c[nH]c3ccccc23)CC1,-4%,4.5,5.3,0.8,-5,-0.4,0.67
Cc1onc(-c2c(Cl)cccc2Cl)c1C(=O)NCc1ccccn1,3%,-4.8,5.1,3.5,4,0.0,0.69
C/C(=C\C(=O)c1c(O)cc(C)oc1=O)N(C)C,-13%,-0.6,3.2,1.0,5,1.4,0.66
Cn1ncc2c(NNC(=O)c3ccccc3Cl)ncnc21,/,-0.9,4.1,-0.9,3,-0.1,0.7
O=C(Nc1cccc(O)c1)c1ccc(Br)cc1,5%,-1.3,3.1,4.1,2,-9.5,0.65
O=C(CSc1nc2[nH]ncc2c(=O)n1-c1ccccc1)N1CCCc2ccccc21,-3%,-0.5,-0.8,/,/,0.5,0.72
O=C1NC(Cc2ccccc2)C(=O)N1Cc1ccccc1 (stereo unspecified),-1%,/,-0.2,-0.4,3,/,0.64
Cc1ccc(S(=O)(=O)NCC(=O)NC2CCCCCC2)cc1,-10%,4.5,-0.2,5.6,4,1.0,0.66
Cc1nn(-c2ccc([N+](=O)[O-])cc2)c2c1C(c1ccc(OC(F)F)cc1)N1C(=N2)C(=O)Nc2ccccc21 (stereo unspecified),/,2.4,/,4.6,7,0.3,/
Cc1ccc(-n2nc3c(c2NC(=O)c2ccc4c(c2)OCO4)CS(=O)(=O)C3)cc1C,/,-5.5,-0.7,-4.8,-6,0.7,0.68
CC(=O)Nc1ccc(-c2csc(NCc3ccccc3)n2)cc1,8%,0.4,3.1,2.3,-8,0.8,0.64
Cc1ccc(NC(=O)Cc2nn(C)c(=O)c3ccccc23)cc1F,-5%,2.2,4.8,2.3,2,-2.6,0.76
CCc1ccc(/C=C2\SC(=S)N(CCC(=O)N3CCN(C)CC3)C2=O)cc1,8%,0.0,/,0.1,16,0.6,/
CC(C)NC(=O)C1CCN(C2CCN(C(=O)C3=CCCC3)CC2)CC1,/,3.6,-0.8,-2.5,-4,0.5,0.68
COC(c1ccccc1)c1nnc(CCC(=O)N2CCCCCCC2)o1 (stereo unspecified),/,5.9,3.5,-6.6,-6,-0.1,0.61
CCOC(=O)COc1ccc(S(=O)(=O)NCc2cccnc2)cc1,0%,4.5,0.4,3.6,7,-0.2,0.7
Cc1ccc2cccc(S(=O)(=O)n3nc(C)cc3C)c2n1,3%,3.2,0.8,0.0,-1,0.4,0.74
COc1ccc(Cl)cc1NC(=O)CSc1nnc(Cn2c(=O)sc3ccccc32)n1C,7%,-7.0,1.9,1.1,-12,-1.2,0.72
CC(=O)NCCc1ccc(S(=O)(=O)N2CCN(c3nc(-c4ccccc4)c(C)s3)CC2)cc1,4%,-3.9,3.6,1.1,1,2.3,0.69
Cc1ccc(-c2nc(CS(=O)(=O)CC(=O)Nc3cc(F)ccc3F)c(C)o2)cc1,/,-0.3,0.6,-1.3,-1,/,0.72
O=C(O)CN1C(=O)COc2cc(S(=O)(=O)N3CCCC3)ccc21,>100µM*,6.9,-1.3,-3.1,10,-0.1,0.74
Cn1ncc2c(=O)[nH]nnc21,-5%,/,/,-1.7,-5,/,/
Cc1ccc(NC(=O)Cn2cnc3c(=O)n(C)c(=O)n(C)c32)c(C)c1,-6%,2.3,3.6,-0.7,-1,-0.3,0.69
COc1ccc(NC(=O)C2CCOC2=O)cc1 (stereo unspecified),/,-0.3,2.7,1.4,-4,0.5,0.71
C=CCNC(=O)c1cc(-c2ccncc2)nc2c(C)cc(C)cc12,1%,-5.3,-137,-0.4,-2,-0.1,0.69
COc1ccccc1NS(=O)(=O)c1cccc(NC(=O)Cc2cccs2)c1,7%,0.0,2.0,1.2,-5,0.2,0.68
Nc1cc(C(=O)OCC(=O)NCCNC(=O)COC(=O)c2ccc(Cl)c(N)c2)ccc1Cl,/,2.8,-7.7,1.7,1,-0.3,0.67
CCN(CC(=O)Nc1ccccc1C(F)(F)F)CC(=O)NC1CC1,/,-3.1,3.3,6.9,-5,0.5,0.67
O=C(c1cnn(C(=O)CN2CCCC2=O)c1)c1ccccc1O,-3%,10,-30,2.4,0,-0.2,0.64
Cc1cc(OCC(=O)Nc2ccccc2C)no1,-4%,0.6,0.9,0.0,0,1.0,0.69
O=C(Nc1ccc(F)cc1F)N1CCCCCC1,/,-2.4,0.1,-1.4,-5,-1.8,0.61
Cc1ccc2c(C(=O)CNc3nncs3)c(C)[nH]c2c1,11%,-2.4,7.7,0.4,-2,0.2,0.69
CCOc1cccc2cc(C(=O)N3CCOCC3)c(=O)oc12,/,1.8,-2.4,0.6,-2,0.2,0.7
CCc1ccc(NC(=O)COC(=O)CC2CCCC2)cc1,-8%,-3.0,1.0,-1.2,-2,0.3,0.68
Cc1onc(-c2c(Cl)cccc2Cl)c1C(=O)NC(C)(C)CO,0%,2.7,3.4,-0.1,2,0.3,0.69
Cc1ccc(S(=O)(=O)c2nc(NC3CCS(=O)(=O)C3)sc2Cl)cc1 (stereo unspecified),9%,/,2.1,-4.2,0,0.0,0.79
O=C1CNC(=S)N1c1nc2ccccc2s1,-1%,-6.1,1.0,-0.2,2,-3.0,0.64
Cc1cc(C)n2cc(CSCc3ccco3)nc2n1,?,-3.0,-2.0,2.2,-8,0.0,0.7
CC(O)CN(CC(C)O)c1ccc2c(c1)Cc1cc([N+](=O)[O-])ccc1-2 (stereo unspecified),-6%,/,8.0,94,-34,/,0.65
Cc1ccc(C(=O)Nc2ccc3c(c2)C(=O)N(C)C3=O)c(C)c1,/,2.8,-138,2.0,-9,0.6,0.72
CCOC(=O)C1CCN(C(=O)c2cc3cc(C)ccc3[nH]2)CC1,-8%,-0.4,-0.1,-1.6,11,-0.5,0.68
CCOc1ccc(OCC)c(NC(=O)C2CCCN(C(=O)c3ccc(Cl)cc3)C2)c1 (stereo unspecified),2%,0.0,3.8,4.3,-5,1.1,0.65
CCOc1ccccc1N1CCN(C(=O)CCNS(=O)(=O)c2ccccc2F)CC1,-4%,7.3,-0.2,-1.5,0,-0.7,0.68
Cn1c(Cn2c(=O)sc3ccccc32)nnc1SCC(=O)N1CCN(c2ccccc2)CC1,24%,-1.1,4.2,1.2,0,0.0,0.72
CN(C)/C=C(\c1cnc(Cl)s1)S(=O)(=O)c1ccccc1,/,1.4,4.7,-2.9,-4,1.2,0.73
CC(C)[C@H](CN1CCC[C@H]1CN1C(N)=NC[C@H]1C(C)C)N1C[C@@H](Cc2ccccc2)N(CCCC2CCCC2)C1=N,/,/,/,-0.2,-4,-0.4,/
OCC(O)C(O)C(O)C(O)C1NCCS1 (stereo unspecified),4%,-7.6,4.4,1.1,0,1.3,0.66
Cc1ccccc1NCc1ccc(O)c2ncccc12,10%,5.4,0.7,1.2,-1,0.4,0.68
CS(=O)(=O)c1ccc(C(=O)OCC(=O)Nc2cccnc2Cl)cc1[N+](=O)[O-],/,3.3,5.0,-2.0,9,0.4,0.68
CC(C)CNC(=S)N(CCO)Cc1cc2cc3c(cc2[nH]c1=O)OCO3,/,2.1,-81,-0.6,2,0.3,0.67
COCCN(CCOC)S(=O)(=O)c1ccc(C(=O)Nc2nnc(COC)o2)cc1,-6%,2.4,2.9,11,1,-0.6,0.71
COc1ccc(Cl)cc1S(=O)(=O)n1cnc2ccccc21,-2%,-0.2,0.4,-0.5,-6,?,0.7
CN(C)S(=O)(=O)N1CCN(CC(=O)Nc2ccc(F)cc2)CC1,-5%,-1.4,4.4,0.4,-7,0.1,0.67
COc1ccc(OC)c(Nc2nc(-c3sc(NC(=O)C(C)(C)C)nc3C)cs2)c1,10%,-0.9,-0.8,7.8,36,-1.6,0.7
CN1CCN(NC(=S)NC2CCCCC2)CC1,11%,-7.8,2.4,-2.5,8,0.1,0.68
O=C(CCC(=O)N(CC(=O)NC1CCCC1)Cc1cccs1)Nc1nccs1,/,2.4,0.6,-0.6,5,1.0,0.71
# (listing goes on)
SMILES,Vif TR-FRET,LANA-H2B inh,UCH37 DUB inh,HNF4A DNA FP,B2AR ag,A1 inh,E coli growth
CCCc1c(C(=O)N/N=C/c2cccs2)nnn1-c1nonc1N,/,-4.0,/,-2.1,-23,0.1,/
Cc1cnc(C)c(N2CCC(C(=O)NCc3cccs3)CC2)n1,2%,-5.8,2.6,0.8,8,1.4,0.74
O=C(CN1C(=O)NC2(CCCC2)C1=O)N1CCN(c2cccc(C(F)(F)F)c2)CC1,5%,3.3,3.6,-0.7,10,1.4,0.71
COCCN(C(=O)COC(=O)/C=C/c1ccco1)c1c(N)n(Cc2ccccc2)c(=O)[nH]c1=O,/,-2.5,2.9,-2.0,-6,-0.6,0.7
O=[N+]([O-])c1ccc(NCCCN2CCOCC2)c(Cl)c1,0%,1.3,6.5,0.4,0,0.6,0.69
Cc1cc(Cl)ccc1NC(=S)NCCc1ccc(S(N)(=O)=O)cc1,/,4.3,1.1,0.6,-1,-0.7,0.76
COc1ccc(OC)c(NC(=O)CC(NCCC2=CCCCC2)C(=O)O)c1 (stereo unspecified),-6%,/,2.2,/,/,/,0.63
COc1cc(CC(=O)OCC(=O)N(C)C2CCCCC2)cc(OC)c1OC,/,-0.6,0.1,1.2,-6,0.7,0.7
CN(C(=O)c1ccc(OC2CCN(Cc3ccccn3)CC2)cc1)C1CCCCC1,6%,0.5,4.1,0.1,-7,-1.1,0.74
O=C(CCC1CCCCC1)Nc1nncs1,/,-3.2,1.2,3.6,-7,0.6,0.62
Cc1[nH]n(-c2ccccc2)c(=O)c1CCO,-1%,-1.2,5.0,-0.2,-6,-0.6,0.69
O=C(Nc1ccccc1SCC1CSc2nc3ccccc3c(=O)n21)c1cccc(Cl)c1 (stereo unspecified),2%,-4.2,2.6,2.9,-3,0.0,0.69
C[C@H](O)Cc1cn(-c2cc3cc(C#Cc4ccsc4)ccc3oc2=O)nn1,/,-2.8,-0.5,-0.8,4,0.9,/
CC1COc2ccccc2N1C(=O)c1ccc(Cl)nc1 (stereo unspecified),5%,-2.2,0.7,-1.9,3,0.5,0.66
CCN1CCN(CCCOc2ccc(Cl)cc2Br)CC1,?,-0.9,4.2,-4.5,14,-0.4,0.69
CCCN1C(=O)c2cc(C(=O)Nc3ccccc3C)ccc2C1Nc1ccccc1C (stereo unspecified),5%,0.4,3.1,1.5,1,0.1,0.67
Cc1cc2ccccc2c(=O)n1CC(=O)NCC(=O)N1CCCC1,26%,2.3,-4.7,-0.6,0,0.3,0.8

# Complete entries, looked up by structure. Order of values: Vif TR-FRET	LANA-H2B inh	UCH37 DUB inh	HNF4A DNA FP	B2AR ag	A1 inh	E coli growth
# CCN1CCN(CCCOc2ccc(Cl)cc2Br)CC1 is entered as ?	-0.9	4.2	-4.5	14	-0.4	0.69
# C[C@H](O)Cc1cn(-c2cc3cc(C#Cc4ccsc4)ccc3oc2=O)nn1 is entered as /	-2.8	-0.5	-0.8	4	0.9	/
# CCCN1C(=O)c2cc(C(=O)Nc3ccccc3C)ccc2C1Nc1ccccc1C (stereo unspecified) is entered as 5%	0.4	3.1	1.5	1	0.1	0.67

# High-throughput results deposited in PubChem BioAssay by several laboratories.
